# High-throughput results deposited in PubChem BioAssay by National Center for Advancing Translational Sciences (NCATS).
# TRPML1 agonist – agonists of human TRPML1 channel | TRPML1-expressing cells, Ca2+ dye fluorescence, FDSS; host cell line not named in the record; reference of the full effect not given here | actives 0.12% (n = 410,000) | AID 624414 | activation, % (test concentration not listed) | Q9GZU1; in the data active = activation above about 50%; inconclusive = about 30% to 50%; inactive = below about 30%; further: 0% is about no effect; the text of the record puts the active cut at 80%
#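 Tetracycline-induced TRPML1-DL cells are seeded and incubated overnight before loading with a no-wash Ca2+ dye and quencher. Agonist activity is taken from the 110 s fluorescence read following compound pin-transfer on an FDSS, before EC80 54-4 challenge.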
# TRPML1 blocker – blocks the human TRPML1 channel | Q9GZU1 | TRPML1-inducible cells, Ca2+ dye fluorescence, FDSS; stronger effect = lower value; inhibition of EC80 agonist-evoked calcium signal | activity change, negative = inhibition, % (no concentration beside the values) | actives 0.02% (n = 390,000) | AID 624415; in the data active means activity change below about -50%; inconclusive means about -30% to -50%; inactive means above about -30%;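 further: stimulus is agonist 54-4 at its EC80 concentration; on the % scale 0 is the no-effect control and ±100 the full control effect; compound concentration not given in the record; the text of the record puts the active cut at -80%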
#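 TRPML1-DL cells, Tet-induced overnight (~16 h, 37 °C) at 1,500 cells/well, were loaded with Ca8 no-wash dye plus quencher for 45-90 min at room temperature. Compounds were pinned during FDSS kinetic reading; agonist 54-4 at EC80 (4 uM final) then added.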
# PINK1 expr mod – PINK1 expression modulation | Potency, µM (doses to about 76.6 µM), for inactives: top-dose activation (PINK1 increase), actives largely listed as activators | actives 0.2% (n = 410,000) | PINK1 immunofluorescence, high-content cytometry, 24 h; active = well fitted activation curve with a large enough effect; inconclusive = small, poorly fitted or top-dose-only effect; inactive = flat fitted curve, though single readings scatter; cell line not stated here;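 further: potency means the concentration at half of the fitted maximal effect; % of control where 0% means no effect; nearly all actives have a fitted effect of over 65% in size; a mitochondrial uncoupler was the plate control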
#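 PINK1 protein level read as immunofluorescence by microplate cytometer in a fixed, stained stable cell line after 24 h exposure to five compound concentrations, with CCCP as control.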
# Sfp PPTase inh – blocks B. subtilis Sfp PPTase activity. Q9F4F7. Biochemical Sfp PPTase activity, qHTS. Potency, µM, inactives show max response, negative = inhibition, actives largely listed as inhibitors. actives 3.5% (n = 310,000). AID 1490; active means well fitted inhibition curve with a large enough effect; inconclusive means small, poorly fitted or top-dose-only effect, or another doubt; inactive means no such curve, though single readings can be large or run the other way;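 further: the enzyme is Sfp with the accession as filed and its product quenches rhodamine fluorescence; potency means the concentration at half of the fitted maximal effect; 0% = enzyme reaction without inhibitor and -100% = no enzyme wells; top concentration of the series not given in the record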
#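 Compounds were incubated with enzyme (final 15 nM) for 15 min at room temperature before substrate addition started the reaction. Fluorescence at 525 nm excitation, 598 nm emission was recorded immediately and after 30 minutes.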
# TRPV1 potentiator – potentiators of human vanilloid receptor 1 (TRPV1); potentiation, % at 8.33 µM; actives 0.02% (n = 320,000); Q8NER1; TRPV1-expressing cells, Fluo-8 calcium influx, capsaicin EC20 potentiation; host cell line not named in the record; control for the full effect not named in the record; active means potentiation above 80%; inconclusive means 30% to 80%; inactive means below 30%; further: 0% is about no effect
# Target sequence (Q8NER1 whole entry, looked up): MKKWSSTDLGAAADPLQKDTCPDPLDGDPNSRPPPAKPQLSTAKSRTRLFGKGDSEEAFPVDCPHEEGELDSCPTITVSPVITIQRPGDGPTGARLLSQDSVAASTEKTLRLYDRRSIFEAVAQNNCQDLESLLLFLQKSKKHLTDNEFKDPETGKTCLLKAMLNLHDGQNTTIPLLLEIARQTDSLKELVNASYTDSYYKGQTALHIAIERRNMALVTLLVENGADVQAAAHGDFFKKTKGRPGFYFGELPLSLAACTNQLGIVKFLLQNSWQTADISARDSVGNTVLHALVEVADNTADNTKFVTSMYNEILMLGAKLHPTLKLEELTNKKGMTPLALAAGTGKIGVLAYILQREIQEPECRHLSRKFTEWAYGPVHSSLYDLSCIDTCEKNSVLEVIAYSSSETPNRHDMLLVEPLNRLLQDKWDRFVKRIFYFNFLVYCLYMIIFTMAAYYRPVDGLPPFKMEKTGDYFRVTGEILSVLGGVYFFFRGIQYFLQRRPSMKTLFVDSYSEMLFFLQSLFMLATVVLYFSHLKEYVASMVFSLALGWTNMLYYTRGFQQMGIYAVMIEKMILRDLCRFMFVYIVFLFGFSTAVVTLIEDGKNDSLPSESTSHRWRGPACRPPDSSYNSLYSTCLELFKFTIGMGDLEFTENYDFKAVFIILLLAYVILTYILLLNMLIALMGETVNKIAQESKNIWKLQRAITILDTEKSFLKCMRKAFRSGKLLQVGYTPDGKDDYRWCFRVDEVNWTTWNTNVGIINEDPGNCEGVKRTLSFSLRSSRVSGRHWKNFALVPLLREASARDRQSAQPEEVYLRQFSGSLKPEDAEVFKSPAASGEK
#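 TRPV1-expressing cells were cultured overnight at 35.5C and loaded with Fluo-8 calcium dye for 40 to 90 min at room temperature. After a 10 s baseline, compound was added and calcium influx was read kinetically for 3 min (ex 480/em 520 nm).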
# ClpP mod – qHTS Assay for Activators of ClpP | purified B. subtilis ClpP, FRET peptide cleavage, 20 min | Potency, µM (top dose mostly 57.5 µM), for inactives: top-dose activity change, negative = active | actives 1.9% (n = 340,000) | AID 651965, 2013; active = well fitted falling curve with a large enough effect; inconclusive = small, poorly fitted or top-dose-only effect; inactive = no such curve, though single readings can be large or run the other way; further: potency means the concentration at half of the fitted maximal effect; the source files actives as falling curves though it sought activators and does not explain the sign; nearly all actives have a fitted effect of over 65% in size; many hits overshoot -100%
# Target sequence (P80244 whole entry, looked up): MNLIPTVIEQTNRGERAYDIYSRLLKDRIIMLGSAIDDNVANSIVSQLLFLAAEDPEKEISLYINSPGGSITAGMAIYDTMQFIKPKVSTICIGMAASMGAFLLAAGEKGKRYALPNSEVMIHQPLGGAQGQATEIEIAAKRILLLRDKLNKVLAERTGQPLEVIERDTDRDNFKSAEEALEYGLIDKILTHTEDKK
#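 Purified B. subtilis ClpP, 10 microg/mL final in Tris/HCl pH8 with KCl, BSA, glycerol and Tween-20, cleaved an Abz/nitrotyrosine-quenched decapeptide. Fluorescence (ex 320, em 430) was read at 0 and 20 min at room temperature. Delta was normalized to 5.8 microM ADEP and DMSO/no-enzyme controls.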
# Menin MLL FP FL – inhibitors of human menin-MLL interaction, wild-type MLL peptide; Fluorescence polarization, fluorescein-MLL peptide displacement from menin; FP activity change, % at 61.4 µM; 290,000 tested, under 10 active; inconclusive = falling polarisation curve, or a change in total fluorescence; inactive = total fluorescence flat and polarisation flat or rising; no compound was filed as active; the % refers to the polarisation; negative = inhibition;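 further: % of control where 0% means no effect; inhibitors lower the polarisation; unlabelled MLL peptide was the positive control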
# The depositor's hits bear a star; ? = inconclusive; nt = no result given; & = joins results of further samples; [ ] = remark or other dose.
# Values run as follows: TRPML1 agonist	TRPML1 blocker	PINK1 expr mod	Sfp PPTase inh	TRPV1 potentiator	ClpP mod	Menin MLL FP FL
CC1=C(C(=O)NCc2ccc(Cl)cc2)C2(CCCCCC2)OC1=O
→ 1.0	4	0.6%	nt	nt	0.5%	nt
O=C(O)CN=C1CC(c2ccccc2)CC(=O)/C1=C(/O)CCCN1C(=O)c2ccccc2C1=O (centres undefined)
→ -0.3	17	-1.0%	19%	6	nt	-1.6
CC(C)CCNC(=O)Cc1csc(-c2ccccc2)n1
→ -0.1	-14	-1.2%	10%	6	-0.3%	2.3
CC(C)n1c(SCC(=O)Nc2ccc(N3CCOCC3)cc2)nnc1-c1ccco1
→ -1.6	-16	0.9%	5%	6	0.8%	?
O=C(Nc1ccc(F)cc1)c1ccc(-n2cncn2)c([N+](=O)[O-])c1
→ 0.7	10	-0.4%	22%	-12	nt	-2.1
Cc1ccc(CCNC(=O)C2CCCN(S(=O)(=O)c3cccs3)C2)cc1 (centres undefined)
→ -0.7	-6	-1.1%[38.3 µM]	6%	-16	-0.3%	0.9
CCOC(=O)c1nnc(-c2ccccc2)nc1N1CCSCC1
→ 2.0	4	-0.4%	12%	-8	nt	-1.3
O=C(NCc1ccco1)c1cc2sccc2n1Cc1ccccc1
→ 1.0	13	-3.5%[38.3 µM]	-4%	0	-3.5%	1.7
CN(Cc1ccccc1F)C(=O)c1ccc(Oc2ccccc2)cc1
→ 3.2	30	1.2%	0%	-8	-1.8%	4.0
CC1(Cc2cccc(C(F)(F)F)c2)C(=O)Nc2c(Cl)cccc21 (centres undefined)
→ 0.1	nt	0.8%	nt	nt	-0.6%	nt
O=C(CCCCCn1c(=S)[nH]c2cc3c(cc2c1=O)OCO3)N1CCN(C(=O)c2ccco2)CC1
→ 0.7	21	?	0%	-2	-4.5%	1.0
CNc1snc(C)c1C(=O)OCC(=O)c1cc(F)ccc1OC
→ -0.5	5	0.5%	nt	-3	-3.1%	nt
O=C(NC1CCCC1)C1CCN(C(=O)c2ccccc2Cl)CC1
→ 0.0	5	3.8%	11%	7	nt	0.9
CC1CC(C)CN(S(=O)(=O)c2cc3c(cc2Cl)NC(=O)CO3)C1 (centres undefined)
→ 0.5	30	?	6%	2	3.4%	13
CC1CN(S(=O)(=O)c2ccc(C(=O)Nc3nnc(-c4ccccn4)o3)cc2)CC(C)O1 (centres undefined)
→ 0.2	21	2.3%	-19%	22	nt	-0.9

# Brought forward from above: 2 compounds, followed by the next part.
# Values run as follows: TRPML1 agonist	TRPML1 blocker	PINK1 expr mod	Sfp PPTase inh	TRPV1 potentiator	ClpP mod	Menin MLL FP FL
CC1CC(C)CN(S(=O)(=O)c2cc3c(cc2Cl)NC(=O)CO3)C1 (centres undefined)
→ 0.5	30	?	6%	2	3.4%	13
CC1CN(S(=O)(=O)c2ccc(C(=O)Nc3nnc(-c4ccccn4)o3)cc2)CC(C)O1 (centres undefined)
→ 0.2	21	2.3%	-19%	22	nt	-0.9
CCN(CC)CCNC(=O)c1cc2c(-c3cccc(OC)c3)nn(C)c2s1
→ 0.8&0.0	9&1	-1.3%&-0.3%	0%	-5	4.2%	-6.2
C[C@H](C(=O)CC(=O)OC(C)(C)C)[C@H](O)c1ccc(C(F)(F)F)cc1
→ -1.1	-15	9.9%	22%	-19	-0.2%	6.9
CCOC(=O)C1=C(C)N(C)C(C)=C(C(=O)OCC)C1c1ccccn1
→ 0.3	6	-1.1%	14%	-4	-1.7%	-1.0
COC(=O)c1ccc(C2c3c(-c4ccc(Br)cc4)n[nH]c3C(=O)N2c2ccc(Cl)cc2)cc1 (centres undefined)
→ 1.2	4	?	nt	nt	-7.0%	nt
CC(C)c1ccc(NC(=O)Cn2nnc(C(=O)NCc3cccs3)c2N)cc1
→ -0.1	28	2.1%	nt	nt	-1.3%	nt
CCn1c(Cc2c(C)[nH]c3ccccc23)nnc1SCC(=O)NCc1ccccc1
→ 3.5	5	-4.0%	7%	?	-1.2%	0.1
COc1ccccc1C(=O)Nc1nnc(S(=O)(=O)N2CCN(c3ccc(F)cc3)CC2)s1
→ -0.1&0.4	-5&2	0.9%&3.5%	11%	?	2.3%&-4.7%	nt
COc1ccc(CC(N)c2csc(NC(=O)CCc3ccccc3)n2)cc1 (centres undefined)
→ 1.7	nt	1.8%	nt	nt	0.5%	nt
Fc1ccc(CN2CCC(Cc3ccccc3)CC2)cc1F
→ -0.4	0	1.6%	-13%	4	-1.9%	-2.0
CCN(CC(=O)Nc1cc(Cl)ccc1C)C(=O)CN1C(=O)NC2(CCCC2)C1=O
→ -1.1	-6	4.8%	nt	0	-0.2%	nt
Cc1ccc(S(=O)(=O)NCC(=O)OC(C)C(=O)c2ccccc2)cc1 (centres undefined)
→ -0.2	-4	1.0%	nt	3	-0.4%	nt
Cc1c(NC(=O)COC(=O)C2(c3ccc(F)cc3)CCCC2)c(=O)n(-c2ccccc2)n1C
→ -0.1	-5	0.1%	19%	-10	nt	0.2
CCN(C(=O)COC(=O)c1ccc2c(c1)OCO2)c1ccccc1
→ 0.3	18	0.1%	nt	nt	-2.0%	nt
CCCN1C(=O)c2ccc(C(=O)Nc3cc(C)ccc3O)cc2C1=O
→ -1.1	-17	0.1%	28%	16	-6.4%	-5.9
COc1cccc2c(=O)n(CC(=O)Nc3ccccc3)ccc12
→ -1.0	-6	4.5%	13%	-7	?	1.9

# The listing continues:
# Values run as follows: TRPML1 agonist	TRPML1 blocker	PINK1 expr mod	Sfp PPTase inh	TRPV1 potentiator	ClpP mod	Menin MLL FP FL
Cc1c(CCC(=O)O)c(=O)oc2cc3oc4c(c3cc12)CCCC4
→ 0.0	-1	-0.6%	7%	-9	nt	5.2
Cc1c(C(=O)Nc2cccc3cccnc23)oc2ccccc12
→ 0.7	-2	nt	15%	16	4.7%	-1.0
CCc1cc2c(=O)n(CC)c(SC(C)C(=O)Nc3c(C)n(C)n(-c4ccccc4)c3=O)nc2s1 (centres undefined)
→ 2.1	10	0.4%	-13%	11	-24%	4.3
O=C(O)c1cc(-c2ccc3c(c2)OCO3)nc2ccccc12
→ -0.5	-1	4.7%	-16%	4	-4.1%	-1.4
Cc1cc(OCCCC(=O)NC2=NCCS2)ccc1Cl
→ -0.7	-18	4.4%	11%	5	0.3%	0.8
O=C(Nc1ccc(Cc2ccncc2)cc1)c1ccc(N2CCOCC2)c([N+](=O)[O-])c1
→ -0.3	7	-0.9%	7%	-4	nt	-3.2
COc1cc(/C=N/Nc2cc(C)nc(NS(=O)(=O)c3ccccc3)n2)ccc1O
→ 0.1	-9	0.8%	0%	-6	nt	2.7
COC(=O)Cc1c(C)c2ccc(OCC(=O)N(C)C3CCS(=O)(=O)C3)cc2oc1=O (centres undefined)
→ 1.2	33	-1.0%	7%	-14	3.7%	1.9
COC(=O)CSc1nsc(SCC(=O)OC)c1C#N
→ 0.0	-19	nt	-4%	?	-1.5%	-2.1
COc1cc([N+](=O)[O-])ccc1NC(=O)CCCOc1cccc(C)c1C
→ 0.6	-11	1.4%[38.3 µM]	6%	-13	-2.0%	1.8
Cn1c(=O)c2[nH]c(C=Cc3ccc4c(c3)OCO4)nc2n(C)c1=O
→ -0.2	-2	0.3%	nt	nt	-10%	nt
O=c1[nH]ncn1-c1cccc(C(F)(F)F)c1
→ -0.3	18	-3.1%	13%	2	0.5%	-3.4
CC(C)CC(c1nnnn1CC1CCCO1)N1CCN(C2CCCC2)CC1 (centres undefined)
→ 0.3	?	-1.9%	10%	6	0.8%	-11
Cc1nn(-c2ccccc2)c(Cl)c1C(=O)NC1CCCCC1
→ 3.1	-13	-1.2%	1%	-23	nt	1.4
Cn1c(N)c(Sc2ccc(F)cc2)c(=O)n(C)c1=O
→ 0.4	6	1.0%	18%	-6	-2.3%	-1.0

# Continued.
# Values run as follows: TRPML1 agonist	TRPML1 blocker	PINK1 expr mod	Sfp PPTase inh	TRPV1 potentiator	ClpP mod	Menin MLL FP FL
O=C(CCC1CCCN(C(=O)c2cc(F)ccc2F)C1)N1CCN(c2ccccn2)CC1 (centres undefined)
→ -0.9	-3	-1.4%	nt	nt	-12%	nt
COc1ccc(S(=O)(=O)/N=C2\C=C(NS(=O)(=O)c3ccccc3)C(=O)c3ccccc32)cc1
→ 1.4	14	-2.7%	-21%	?	nt	-13
Cc1sc(=NC(=O)c2ccco2)n(C)c1-c1ccc(Cl)cc1
→ 1.7	-1	-0.6%[38.3 µM]	10%	-3	-4.9%	2.3
Cc1cc(Cl)ccc1OCC(=O)Nc1ccncc1
→ 0.5	7	0.2%	-2%	7	1.5%	-4.0
Cc1cc(C)n2nc(CNS(=O)(=O)c3ccc(CC(C)C)cc3)nc2n1
→ 0.0	-9	-0.2%	13%	5	0.6%	-3.5
CCCCn1c(Oc2ccc(C(=O)OC)cc2)nc2c1c(=O)n(C)c(=O)n2C
→ 1.3	-1	nt	10%	-11	0.4%	-0.9
CC1CN(CC(=O)NN=C(c2ccccc2)c2ccccc2)CC(C)O1 (centres undefined)
→ 1.7	-11	-1.3%	2%	6	2.0%	-1.0
O=S(=O)(NCc1ccccn1)C(F)(F)F
→ 6.0	26	2.5%	-24%	7	-0.5%	-5.7
CCCCOc1ccc(C(=O)N/C(=C/c2cccc([N+](=O)[O-])c2)C(=O)O)cc1
→ 0.0	10	-1.8%	7%	-11	nt	0.4
COc1ccc(S(=O)(=O)n2nc(OC(=O)C3CCCCC3)cc2N)cc1
→ 4.2	-3	-0.6%	?	0	0.8%	-2.7
Cc1noc(C(=O)N2CCN(c3ccccc3)CC2)c1Cl
→ -0.5	9	-0.1%	-5%	-13	0.2%	-0.3
CC(C)C[C@H]1CN([C@@H](Cc2ccccc2)CN2CCCC2CN2C(=S)NC[C@@H]2Cc2ccccc2)C(=S)N1CC1CCCCC1 (some centres undefined)
→ 1.4	nt	6.0%	nt	nt	-0.8%	nt
Cc1ccc(OCC(=O)N2CCCc3ccccc32)cc1
→ 0.2	19	0.3%	14%	-4	1.1%	-0.6
Cc1ccc2cc(CCNC(=O)C(=O)c3c[nH]c4ccccc34)c(=O)[nH]c2c1
→ 3.4	19	6.3%	-4%	-8	nt	-16
NN=C(NN=Cc1ccccc1)c1ccccc1
→ 1.4	4	6.0%	nt	nt	0.9%	nt
O=C(COC(=O)C1CC1)Nc1cccc(Cl)c1
→ 0.0	6	1.8%	nt	nt	0.8%	nt
